Source: PubChem
Rango complex inh: prevents formation of the Rango-importin beta complex; Q14974; Rango CFP/YFP FRET sensor + importin beta, 45 min; Potency, µM (highest dose often 92.2 µM), inactives show at the highest dose inhibition of complex formation; 340,000 compounds, 0.031% hits; active = rising FRET ratio curve, often small or poorly fitted; inconclusive = mostly compound fluorescence or quenching in the first reads; inactive = flat curves in all reads;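 further: potency means the concentration at half of the fitted maximal effect; 0% = DMSO wells and 100% = buffer wells lacking importin beta; nearly all actives have a fitted effect of over 15% in size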
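FRET biosensor (snurportin 1 IBB flanked by EYFP and cerulean), 50 nM, with compound 5 min, then 0.125 microM importin beta in PBS, 1 mM DTT, 0.02% Tween-20, 0.1% BSA. CFP/YFP ratio read after 45 min at room temperature; pre-read flags interference.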
miR-21 reporter: miR-21 reporter, rising signal. Potency, µM (doses to about 38.3 µM), for inactives: at the top dose reporter change, positive = more light. HeLa miR-21 FLuc reporter, luciferase, 48 h. 340,000 tested, under 10 active. AID 2288; active = well fitted rising curve with a large enough effect; inconclusive = small, poorly fitted or top-dose-only effect; inactive = no such curve, though single readings can be large or run the other way;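 further: % of control where 0% means no effect; miR-21 action dims this reporter so a rising signal means less miR-21 action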
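HeLa cells stably expressing CMV-driven firefly luciferase with a downstream miR-21 binding sequence, endogenously expressing miR-21, were treated with titrations (up to about 40uM final) for 48 hours at 37 degree Celsius. Luciferase luminescence was read after lysis.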
Rango dissoc inh: inhibitors of RanGTP-induced Rango-importin beta complex dissociation; Potency, µM (titrated, usually from 46.1 µM), for inactives: at the top dose activity change, negative = inhibition; Biochemical FRET Rango-importin beta, RanGTP-induced dissociation; 340,000 compounds, 0.071% hits; active means falling FRET ratio curve, often poorly fitted, with flat reads before Ran was added; inconclusive means other falling curves, or compound fluorescence or quenching; inactive means flat or rising ratio curve;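 further: potency means the concentration at half of the fitted maximal effect; % of control where 0% means no effect; nearly all actives have a fitted effect of over 45% in size; -100% = wells without RanGTP and RCC1; the record marks most hits as doubtful in a second field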
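FRET read at 45 min, room temperature: inhibitors block the CFP/YFP signal rise when RanGTP (0.6 uM Ran, 2 mM GTP, 0.2 uM RCC1) frees Rango (0.1 uM) from importin beta (0.25 uM). Pre-read after 5 min compound exposure flags interference.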
GLA inh pH 4.5: blocks human alpha-galactosidase A at pH 4.5. P06280. purified enzyme, 4-MU-alpha-Gal fluorescence, pH 4.5. activity change, negative = inhibition, % at 105 µM. 230,000 tested, under 10 active; inconclusive = small, poorly fitted or top-dose-only inhibition, or a rising curve; inactive = flat fitted curve, though single readings scatter; no compound was filed as active;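 further: 0% = full activity with enzyme and -100% = basal without enzyme; dose as in the result columns while the protocol names 77 µM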
Target sequence (P06280 whole entry, looked up): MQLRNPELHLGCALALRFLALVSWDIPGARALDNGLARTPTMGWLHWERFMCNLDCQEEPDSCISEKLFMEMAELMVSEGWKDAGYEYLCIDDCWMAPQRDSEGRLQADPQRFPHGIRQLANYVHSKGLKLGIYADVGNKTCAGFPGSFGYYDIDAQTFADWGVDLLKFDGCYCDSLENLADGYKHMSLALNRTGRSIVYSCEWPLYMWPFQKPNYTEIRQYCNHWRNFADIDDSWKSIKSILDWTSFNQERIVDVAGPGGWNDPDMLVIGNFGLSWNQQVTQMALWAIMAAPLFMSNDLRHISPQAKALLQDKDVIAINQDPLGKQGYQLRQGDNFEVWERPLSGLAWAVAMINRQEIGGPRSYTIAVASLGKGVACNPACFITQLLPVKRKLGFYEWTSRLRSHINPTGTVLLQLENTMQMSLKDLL
Numbers without * were called inactive; ? = inconclusive; . = no result given; & = joins results of further samples. An excerpt; rates above refer to the full screens.

SMILES,Rango complex inh,miR-21 reporter,Rango dissoc inh,GLA inh pH 4.5
CSc1ccc(NC(=O)Nc2cc(C)ccn2)cc1,-2.6%,-75%,10%,6
CC(C)n1c(-c2ccccc2F)n[nH]c1=S,8.2%,0%,37%,?
CN(CC(=O)Nc1ccccc1C(F)(F)F)C(=O)Cc1ccccc1F,-4.2%,3%,0%,.
Cc1ccoc1C(=O)Nc1cccc(Oc2ccccc2)c1,3.8%,-69%,0%,-7
CN(C)C(=O)CNc1n[nH]c(=S)[nH]c1=O,-3.3%,7%,1%,-6
Cc1ccc(Cl)cc1S(=O)(=O)N1CCC(C(=O)NC2CCN(Cc3ccccc3)CC2)CC1,-3.1%,17%,-4%,.
CCN(CC(=O)NC(c1ccccc1)c1ccccc1)Cc1nc2ccccc2c(=O)[nH]1,?,-11%,-18%,4
O=C(c1ccccc1)N1CCCC(C(=O)N2CCc3ccccc3C2)C1 (centres undefined),-1.7%,-3%,0%,-5
O=C(NCc1ccco1)/C(=C\c1ccco1)NC(=O)c1ccccc1Cl,-14%,0%,-5%,.
CN(C(=O)c1ccc(COc2ccccc2Br)o1)c1ccccc1,1.5%,-31%,22%,-8
Fc1cccc(-c2nn[nH]n2)c1,-1.6%,1%,1%,-8
C=CCn1c(N2CCCCCC2)nc2c1c(=O)[nH]c(=O)n2C,0.9%,-24%,0%,6
O=C(Cc1cc(=O)[nH]c(=O)[nH]1)NCc1ccc(Cl)cc1,?,1%,?,8
CNS(=O)(=O)c1cc(-c2nnc(Nc3ccc(NC(C)=O)cc3)c3ccccc23)ccc1C,-0.4%,-7%,5%,.
CCCCN(C(=O)CSc1n[nH]c(-c2ccc(C)cc2)n1)c1c(N)n(CCCC)c(=O)[nH]c1=O,-4.2%,.,18%,.
CCC1(c2ccccc2)NC(=O)N(CC(=O)Nc2ccc(OC)nc2)C1=O (centres undefined),?,0%,?,.
Cc1cnnc2ccc3c(no[n+]3[O-])c12,?,-13%,21%,3
CN(CC(=O)NCCCN1CCOCC1)S(=O)(=O)c1ccc(Br)cc1,-1.9%,1%,20%,-6
CCCCNC(=O)CSc1nnc(-c2ccco2)n1C,-4.7%,-5%,-2%,-3
NC(=O)C1CCN(CC(=O)Nc2ccccc2Sc2ccccc2)CC1,0.7%,-11%,-19%,1
Cc1nc2ccccc2c(=O)n1-c1ccc(F)c(NC(=O)c2cccs2)c1,3.7%,.,?,.
COc1ccc(N=NC2=C(O)CC(C)(C)CC2=O)cc1,-3.0%,-32%,6%,1
O=C(NCc1ccncc1)C(=O)Nc1nccs1,3.1%,-1%,2%,?
CC(=O)Nc1ccc(S(=O)(=O)NC2=C(N3CCN(c4ccc(F)cc4)CC3)C(=O)c3ccccc3C2=O)cc1,0.0%,?,3%,-1
CCc1nc(SCC(=O)Nc2nccs2)c2oc3ccccc3c2n1,-1.3%,-6%,9%,-2
COc1cc(OC)cc(-c2c(C#Cc3ccsc3)c3cc(-c4ccc(C(N)=O)cc4)ccc3n2C)c1,?,.,2%,.
C=CCn1c(-c2cc(-c3ccc(C)cc3)nc3ccccc23)n[nH]c1=S,0.1%,2%,-7%,-9
COc1ccc(S(=O)(=O)N2CCCC(C(=O)NCCC(C)C)C2)cc1 (centres undefined),-3.9%,6%,14%,0
CC1=NN(c2ccccc2)C(=O)C1C(=O)c1ccc([N+](=O)[O-])cc1 (centres undefined),-6.0%,16%,-20%,-7
COc1ccc(CNC(=S)NC(C)CCc2ccccc2)cc1 (centres undefined),-1.6%,-1%,-6%,-3
COc1ccc(NC(=O)c2cc3ccccc3oc2=O)c(OC)c1,-0.6%,-40%,15%,.
CN(Cc1cn(C)nc1-c1ccccc1F)Cc1nccn1C,-1.9%,-3%,-7%,8
O=C(O)c1ccc(/C=N/Nc2ccc(C(F)(F)F)cn2)cc1,1.8%,-50%,-9%,-6
Cc1ccc(-n2nnnc2SCC(=O)NC2CCCc3ccccc32)cc1 (centres undefined),?,-18%,-1%,-12
CC1(C2CCC3(C)OC3C2)CO1 (centres undefined),3.5%,.,-2%,.
Cc1ccc(NC(=O)CSc2ccc(-c3cccnc3)nn2)cc1Cl,-1.7%,6%,3%,-3
CCOc1ccccc1NS(=O)(=O)c1ccc2oc(=O)ccc2c1,0.2%,-1%,-1%,.
COc1ccc(-c2nnc(SC(C)C(=O)Nc3cccc(Cl)c3)o2)cc1 (centres undefined),-0.5%,-53%,10%,0
Cc1cccc(C(=O)NCC(=O)OCC(=O)N2CCCCC2)c1,-1.6%,-5%,-9%,4
COc1ccccc1C/C(N)=N/OC(=O)c1cccc([N+](=O)[O-])c1C,2.0%,-13%,-4%,3
Cc1cc(OC(=O)c2ccc(S(=O)(=O)N3CCCC3)cc2)c([N+](=O)[O-])c(=O)[nH]1,8.5%,3%,7%,-3
COc1ccc(C(=O)Nc2cc3c4c(c2)C(C)C(=O)N4CCC3)c(OC)c1 (centres undefined),3.4%,.,-18%,.
O=c1[nH]c2cc3c(cc2cc1CN(CCCO)C(=S)NCc1ccco1)OCO3,?,1%,?,6
Cc1c(NC(=O)/C(C#N)=C/c2c(Oc3ccccc3)nc3ccccn3c2=O)c(=O)n(-c2ccccc2)n1C,-4.9%,4%,2%,-5
CCOc1ccc2nc(NC(=O)CN3CCN(CC)CC3)sc2c1,-3.1%,-23%,-11%,.
COc1ccc(Cc2nnc(SCC(=O)Nc3ccc(N4CCOCC4)cc3)o2)cc1,-0.6%,-1%,0%,.
CC1(C)CC(=O)C2=C(C1)NC(Nc1nc3ccccc3o1)=NC21CCCCC1,-3.2%,1%,9%,-7
O=C1CCC/C1=c1\s/c(=C\c2cccnc2)c(=O)n1-c1ccccc1,-2.4%,1%,-11%,-13
COCCCNS(=O)(=O)c1ccccc1,-1.4%,-1%,36%,7
COC(=O)c1cnc(Nc2cccc(C(F)(F)F)c2)c([N+](=O)[O-])c1,-3.9%,6%,-17%,1
CC(=O)NCCc1nc2cc(NC(=O)c3cccs3)ccc2n1C,-1.7%,-46%,1%,1
CCOc1ccc2nc(NC(=O)c3ccc(OC)c(S(=O)(=O)N4CCOCC4)c3)sc2c1,3.4%,1%,4%,2
CS(=O)(=O)N(CC(=O)N1CCN(c2ccc(F)cc2)CC1)c1cccc(Cl)c1,0.5%,0%,0%,-7
Cc1ccc(CSc2nnc(SCC(=O)N/N=C/c3ccccc3OCC(=O)O)s2)cc1,-0.5%,?,-2%,1
O=C1NC2(CCCCCC2)C(=O)N1Cc1ccccc1F,?,0%,?,.
CNCCCCOc1ccccc1Cc1ccccc1,.,0%,.,-5&-4
CC(NC(=O)c1nn(C)c(=O)c2ccccc12)c1ccccc1 (centres undefined),-1.2%,-7%,-6%,?
CC(=O)Nc1ccc(S(=O)(=O)N2CC(=O)NC(=O)C2)cc1,-1.5%,0%,1%,.
CCCCCOC(=O)c1ccc(NC(=O)c2cccc(NC(=O)c3ccccc3C(=O)O)c2)cc1,4.3%,1%,9%,.
Fc1ccc(NC(=S)N2CCOCC2)cc1Cl,-8.6%,0%,26%,8

In the list so far, six contain a furan ring, fused or not:
SMILES,Rango complex inh,miR-21 reporter,Rango dissoc inh,GLA inh pH 4.5
Cc1ccoc1C(=O)Nc1cccc(Oc2ccccc2)c1,3.8%,-69%,0%,-7
O=C(NCc1ccco1)/C(=C\c1ccco1)NC(=O)c1ccccc1Cl,-14%,0%,-5%,.
CN(C(=O)c1ccc(COc2ccccc2Br)o1)c1ccccc1,1.5%,-31%,22%,-8
CCCCNC(=O)CSc1nnc(-c2ccco2)n1C,-4.7%,-5%,-2%,-3
CCc1nc(SCC(=O)Nc2nccs2)c2oc3ccccc3c2n1,-1.3%,-6%,9%,-2
O=c1[nH]c2cc3c(cc2cc1CN(CCCO)C(=S)NCc1ccco1)OCO3,?,1%,?,6

Remaining list, next part.
canonical_smiles,Rango complex inh,miR-21 reporter,Rango dissoc inh,GLA inh pH 4.5
Cc1ccc2c(c1)nnn2C1CCN(C(=O)c2ccccc2F)CC1,-4.0%,-2%,-2%,1
Cc1cc(C)n(CC(=O)NNC(=O)c2ccc(NC(=O)CC#N)cc2)n1,-4.2%,.,-8%,.
CC(C)CCn1cnc2c1c(=O)n(CC(=O)NC(N)=O)c(=O)n2Cc1ccccc1,2.5%,0%,-15%,.
Cc1cccc(CC(=O)c2c[nH]c3ccccc23)c1,-0.1%,-37%,-15%,-4
Cc1cccc(C(C)C)c1NC(=O)C1CCN(S(=O)(=O)c2ccccc2)CC1,2.2%,10%,11%,.
Cc1cccc(NC(=O)CN(C)C(=O)c2ccc3ccccc3n2)c1C,-0.8%,.,0%,.
CC(=O)c1c(C)[nH]c(C(=O)OC2CCCCC2=O)c1C (centres undefined),-1.1%,-3%,3%,4
O=C(CN1C(=O)S/C(=C\c2ccccn2)C1=O)Nc1ccccc1,3.4%,1%,-14%,.
Cc1ccc(OC(C)C(=O)N=Nc2c(O)[nH]c3ccc([N+](=O)[O-])cc23)cc1 (centres undefined),0.3%,9%,-10%,-20
CCOc1cc(C)c(S(=O)(=O)N2CCCCC2)cc1C,0.0%,0%,-2%,1
CC(C)SCCCCOc1ccc2ccccc2c1,-0.6%,-36%,0%,1
CCOC(=O)C(CCCCCCC(NC(C)=O)(C(=O)OCC)C(=O)OCC)(NC(C)=O)C(=O)OCC,-1.4%,2%,-13%,-1
O=C(CCSc1ccccc1)Nc1ccc(S(=O)(=O)Nc2ncccn2)cc1,-3.8%,0%,27%,-5
O=C(O)CC(c1ccc(F)cc1F)N1Cc2ccccc2C1=O (centres undefined),-2.0%,0%,15%,.
Cc1[nH]c(=O)[nH]c(=O)c1N(C)C,-1.1%,6%,-19%,-6
CC(C)NS(=O)(=O)c1ccc(OCC(=O)NC2CCCCCC2)cc1,4.0%,-3%,9%,.
Cc1ccc(Cn2c(CN3CCOCC3)nc3c2c(=O)n(C)c(=O)n3C)cc1,3.6%,3%,2%,5
COc1ccc(CCNC(=O)COc2ncnc3ccccc23)cc1OC,-6.0%,0%,-16%,0
CCN(CC)S(=O)(=O)c1ccc(N2Cc3ccccc3C2=N)cc1,-0.3%,0%,-5%,-1
O=C1CN(C(=O)NCCC(=O)NC2CCCCC2)c2ccccc2N1,-2.1%,0%,4%,.
Nc1ccccc1NC(=O)NC(=O)c1ccccc1,-1.1%,-57%,-1%,.
O=C(O)CSc1ncnc2c1oc1ccccc12,0.4%,-3%,6%,-5
CC(=O)c1ccc(S(=O)(=O)NC2CC(=O)N(c3cccc(F)c3)C2)cc1 (centres undefined),?,.,-5%,.
COc1cc(C)c(S(=O)(=O)N2CCOCC2)cc1C(C)C,-1.3%,-3%,2%,-15
O=C(O)Cn1c(-c2cscn2)nc2ccccc21,-1.0%,-2%,2%,-1
CC1CCCN(C(C(=O)Nc2ccc3c(c2)OCO3)c2ccccc2)C1 (centres undefined),-6.6%,-11%,?,-4
